Screening results deposited in PubChem BioAssay by Broad Institute.
Ecoli rRNA inh = reduced GFP signal of wild-type E. coli, primary screen, bacterial rRNA inhibitor project, GFP/RFP fluorescence, OD600, single point | E. coli WT GFP vs humanized-ribosome RFP mutants, 24 h; hits give low values; DMSO median 0, no signal -100 | GFP signal change (wild-type ribosome), % (test concentration not listed) | hit rate 1.6% among 350,000 | AID 720706, 2013;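 active means significant combined selectivity score with lowered wild-type GFP, culture density cut under 30%, mutant RFP and density less affected; inactive means any of these conditions unmet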; further: one replicate is shown; some compounds called inactive have numbers as strong as hits
Beta apoptosis = inhibitors of cytokine-induced beta cell apoptosis, primary screen, luminescence | protection from apoptosis, % (no concentration beside the values) | INS-1E cytokine-induced death, ATP luminescence, 48 h; percent of positive-control rescue, neutral wells zero | hit rate 0.8% among 300,000;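 active means all replicates at 75% or more, or half of them and the mean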;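 further: 0% = cytokine-treated negative control wells and 100% = positive control rescue; higher means more ATP so stronger rescue from cytokine killing; wells of about 40 µL received 100 nL stock; the first replicate is given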
ALR inh = inhibitors of human ALR sulfhydryl oxidase, primary screen, biochemical, H2O2 detection, HRP-luminol luminescence, single point; AID 485317, 2010; FAD-linked sulfhydryl oxidase ALR (Homo sapiens), P55789; hit rate 3.8% among 290,000; inhibition, % (no concentration beside the values); purified ALR, DTT oxidation;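 active means mean and each replicate at 75% or more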;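 further: stock transfer was 7.5 nL into about 7.5 µL; 0% = neutral wells and 100% = wells with inactivated enzyme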
Target sequence (P55789 whole entry, looked up): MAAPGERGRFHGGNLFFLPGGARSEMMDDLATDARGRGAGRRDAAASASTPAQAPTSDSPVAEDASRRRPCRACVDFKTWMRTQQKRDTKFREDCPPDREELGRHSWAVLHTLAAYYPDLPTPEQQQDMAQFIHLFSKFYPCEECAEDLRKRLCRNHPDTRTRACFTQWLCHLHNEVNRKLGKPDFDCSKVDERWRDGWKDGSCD
Ecoli rRNA inh OD600 = also measured in Ecoli rRNA inh; calls as there; OD600 change, %; measured here: OD600 growth;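 optical density of the mix in the first replicate; 0 = DMSO median and -100 = no signal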
Ecoli rRNA inh RFP = also measured in Ecoli rRNA inh; calls as there; RFP signal change, %; measured here: RFP humanized mutant strains;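 first replicate; 0 = DMSO median and -100 = no signal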
* marks the source's active call; other numbers are inactive results; . = not tested or not shown. A portion of the library, so the mix of outcomes need not match the whole.

SMILES	Ecoli rRNA inh	Beta apoptosis	ALR inh	others
CCC(=O)N1[C@@H]2c3ccc(-c4cncnc4)c(=O)n3C[C@H]1[C@H](CO)[C@H]2C(=O)N1CCc2ccccc2C1	1	.	.	Ecoli rRNA inh OD600=1;Ecoli rRNA inh RFP=-1.7
COc1ccc(S(=O)(=O)N(C)C[C@@H]2Oc3ncc(/C=C/c4ccccc4)cc3C(=O)N([C@@H](C)CO)C[C@H]2C)cc1	-6	.	.	Ecoli rRNA inh OD600=-13;Ecoli rRNA inh RFP=0.4
CCS(=O)(=O)N1CC2(CN(Cc3ccc4c(c3)OCO4)[C@H](CO)c3[nH]c4cc(OC)ccc4c32)C1	-1	.	.	Ecoli rRNA inh OD600=1;Ecoli rRNA inh RFP=1.2
Nc1nc(-c2ccc3c(c2)CCCC3)cs1	.	-4	99*
COc1ccccc1C(O)(C(=O)NN(C(=O)c1ccccc1)c1ccccc1C)c1cccs1 (configuration not stated)	.	-9	1
N=c1oc2ccc3ccccc3c2cc1-c1nnc2n1CCCCC2	.	-13	-65
O=C(OCc1ccccc1)C1=[N+]([O-])OC(C(=O)OCc2ccccc2)C1c1c[nH]c2ccccc12 (configuration not stated)	.	-4	-7
O=C1CCC(=O)N1CN(Cc1ccco1)CN1C(=O)CCC1=O	.	-1	-4
CCn1nc(C(=O)NC2=NCCS2)c2ccccc2c1=O	.	-6	39
COc1cc2cc(C[C@H](C)O)oc(=O)c2cc1OC	.	0	-5
CC(=O)Oc1ccc(C#C/C=C2\c3ccccc3C(=O)N2c2ccccc2)cc1	.	5	2
COc1ccc(Cn2cnc3sccc3c2=O)cc1	.	-9	0
CN(C)CCCN(C(=O)c1cccs1)c1nc(-c2ccccc2)cs1	.	0	-1
CCn1c(SC(C)C(=O)O)nc2sc3c(c2c1=O)CCC3 (configuration not stated)	.	-1	12
COc1ccc(N(Cc2cc3cc(OC)ccc3[nH]c2=O)C(=O)c2cccnc2)cc1	.	7	-11
NC1=NC[C@@H](CC2CCCCC2)N1CCc1cc(C(F)(F)F)cc(C(F)(F)F)c1	.	109*	-3
CCOC(=O)N1CCN(C(=O)c2ccc3c(=O)n(Cc4ccc(OC)cc4)c(=S)[nH]c3c2)CC1	.	12	21
COc1ccc(C2C3C(=O)N(Cc4ccccc4)C(=O)C3ON2c2ccccc2)c(OC)c1OC (configuration not stated)	.	0	-32
Cc1onc(-c2c(Cl)cccc2Cl)c1C(=O)Nc1ccc2c(c1)OCCO2	.	-4	-12
Cc1cn([C@@H](CCCCNC(=O)OC(C)(C)C)C(=O)NCCCCCCCCCCC(=O)N2CCN(C(=O)OC(C)(C)C)CC2)nn1	.	72	-2
Cc1c(/C(O)=C2\C(=O)C(=O)N(CCN(C)C)C2c2cccnc2)cnn1-c1ccccc1 (configuration not stated)	.	0	-3
O=C(NCc1ccccc1Br)c1cccc2c1C(=O)c1ccc(-c3ccc(OC(F)(F)F)cc3)cc1S2(=O)=O	.	32	5
O=C(NCc1cc(C(F)(F)F)ccc1Cl)c1cccc2c1C(=O)c1ccc(N3CCC(Cc4ccccc4)CC3)cc1S2(=O)=O	.	-1	0
Cc1ccc(C2C3=C(Nc4[nH]n(-c5ccccc5)c(=O)c42)c2ccccc2C3=O)cc1 (configuration not stated)	.	0	87*
COc1ccc(N=CC2=C(Nc3ccc(OC)cc3)c3c(C)nn(-c4ccccn4)c3CC2)cc1	.	110*	-43
Cc1nc(Sc2nnnn2C)c2c3c(sc2n1)CCC3	.	61	94*
CCOc1ccccc1Cn1c(=O)oc2ccc(C)cc21	.	-1	-1
Cn1c(-c2cccc(OCc3ccccc3)c2)nc2c1c(=O)[nH]c(=O)n2Cc1ccccc1	.	10	-17
C#CCOCCOCCOCCNc1nc(N2CCN(C(=O)CCCCCCCCCCNC(=O)Cn3cc(C[C@@H](C)O)nn3)CC2)nc(N2CCN(C(=O)CCCCCCCCCCNC(=O)[C@@H]([C@H](C)O)n3cc(C)nn3)CC2)n1	.	52	-3
Nc1ncnc2c1ncn2[C@@H]1O[C@H](CNCc2ccc(-n3cccn3)cc2)[C@@H](O)[C@H]1O	.	-6	3
CC(C)(C)OC(=O)C[C@@H]1C/C=C\C[C@@H](CC(=O)N[C@H](CO)Cc2ccccc2)C(=O)N2CCC[C@@H]2COC1=O	.	5	5
COCCN1CCn2c(nc3cc(NC(=O)NC4CCCCC4)ccc32)C1	.	-6	-24
COCCNC(=O)[C@H]1C[C@@H]1[C@H](NP(=O)(c1ccccc1)c1ccccc1)c1ccccc1	.	-7	-8
CCN1c2ccccc2N(C)C1(C)c1ccccc1 (configuration not stated)	.	106*	12
O=C(NC(c1ccc(Cl)cc1)c1c(O)ccc2ccccc12)c1ccccc1 (configuration not stated)	.	98*	-1
O=C(CSc1nnc(COc2ccccc2F)n1-c1ccccc1)NCc1ccco1	.	-5	2
COc1ccc(CC(=O)Nc2nc(C)cs2)cc1OC	.	13	-5
O=C(CCN1C(=O)C2C3C=CC(C3)C2C1=O)N1CC(=O)N(CCc2ccccc2)C(=O)C1 (configuration not stated)	.	-2	-6
O=C(CSc1nnc(Cc2cc(=O)[nH]c(=O)[nH]2)n1-c1ccccc1)N1CCCc2ccccc21	.	-3	1
Cc1ccccc1Cn1nc(C)c(NC(=O)c2cc3n(n2)C(C(F)F)CC(C(F)F)N3)c1C (configuration not stated)	.	-2	-2
Cc1ccc(S(=O)(=O)N(C)c2ccc(C(=O)N3CCC(C(N)=O)CC3)cc2)cc1	.	1	2
C[C@@]12C(=O)Nc3ccc(Cl)cc3C(=O)N1[C@H]1c3ccccc3OC[C@@H]1[C@@H]2c1ccccc1	.	-7	6
COc1ccc2sc(-c3ccc(SC)cc3)c(/C=C/c3ccc(OC)c(OC)c3)c2c1	.	2	0
O=C(Cn1cnc2ccccc2c1=O)NCC1COc2ccccc2O1 (configuration not stated)	.	-3	4
COc1ccccc1Nc1ncc(C(=O)N2CCC(C(N)=O)CC2)c2ccccc12	.	-11	-12
Cc1ccc(S(=O)(=O)N2[C@@H](c3ccccc3F)C(C(=O)O)=CC[C@H]2c2cccc(C)c2)cc1	.	-6	0
Cc1cc(NC(=O)CSc2nc3ccccc3s2)no1	.	-12	-9
CCCCNC(=O)Nc1nnc(-c2ccc(OCC)cc2)o1	.	-2	-4
COc1ccc(CCNc2oc(COc3ccccc3F)nc2C#N)cc1OC	.	-1	-12
Cc1ccccc1OCCOc1ccccc1C=C(C#N)C#N	.	-5	-28
N#C/C(=C/c1ccc(-c2ccc(S(N)(=O)=O)cc2)o1)c1nc2ccccc2s1	.	9	-6
Cc1c(Cc2ccccc2)c(=O)oc2c(C)c(OCc3nn[nH]n3)ccc12	.	1	70
Cc1cc(Nc2nc3ccccc3[nH]c2=O)n(-c2ccccc2)n1	.	-12	-11
COc1ccc(C2=Nn3c(nnc3-c3ccccc3OC)SC2)cc1OC1CCCC1	.	31	1
O=C(CN1CCCCC1)N1c2ccccc2Sc2ccc(C(F)(F)F)cc21	.	-2	10
Cc1cc(-n2nc(C)cc2C)nc(NS(=O)(=O)c2ccccc2)n1	.	1	0
CN1C(=O)C2(c3ccccc31)C1CCCC=C1C(C#N)=C(N)C2(C#N)C#N (configuration not stated)	.	-2	46
CCN(C(=O)CCS(=O)(=O)c1ccc(Br)cc1)c1ccc2c(c1)OCO2	.	-3	-16
CCC1(C)Cc2c(sc3c2c(=O)n(-c2ccccc2)c(=O)n3C)CO1 (configuration not stated)	.	-6	-21
C#CCOCCOCCOCCNc1nc(N2CCN(C(=O)CCCCCCCCCCNC(=O)[C@H](CCCCN)n3cc(C)nn3)CC2)nc(N2CCN(C(=O)CCCCCCCCCCNC(=O)[C@H](CCCN=C(N)N)n3cc(C[C@@H](C)CC)nn3)CC2)n1	.	100*	3

Overlap with the part before: three entries; new compounds follow.
SMILES	Ecoli rRNA inh	Beta apoptosis	ALR inh	others
CCN(C(=O)CCS(=O)(=O)c1ccc(Br)cc1)c1ccc2c(c1)OCO2	.	-3	-16
CCC1(C)Cc2c(sc3c2c(=O)n(-c2ccccc2)c(=O)n3C)CO1 (configuration not stated)	.	-6	-21
C#CCOCCOCCOCCNc1nc(N2CCN(C(=O)CCCCCCCCCCNC(=O)[C@H](CCCCN)n3cc(C)nn3)CC2)nc(N2CCN(C(=O)CCCCCCCCCCNC(=O)[C@H](CCCN=C(N)N)n3cc(C[C@@H](C)CC)nn3)CC2)n1	.	100*	3
COc1ccc(N2C(=O)C3C(C2=O)C2C=CC3C23CC3)c(OC)c1 (configuration not stated)	.	-3	0
C#CCOCCOCCOCCNc1nc(N2CCN(C(=O)CCCCCCCCCCNC(=O)[C@H]([C@@H](C)CC)n3cc(CCCCN=C(N)N)nn3)CC2)nc(N2CCN(C(=O)CCCCCCCCCCNC(=O)[C@H](CO)n3cc(CCCCCN)nn3)CC2)n1	.	108*	-12
COc1ccc2nc(C)c3cc(C)oc3c2c1	.	-5	-1
CCCOc1ccc(C2/C(=C(/O)c3ccccc3)C(=O)C(=O)N2CCCN(C)C)cc1OC (configuration not stated)	.	-4	-17
C[C@H](NC(=O)c1nc[nH]c1C(=O)NCc1ccc(CNC(=O)OC(C)(C)C)cc1)C(=O)OCc1ccccc1	.	-2	-8
CCN1C/C(=C/c2cccc([N+](=O)[O-])c2)C(=O)/C(=C/c2cccc([N+](=O)[O-])c2)C1	.	98*	-15
CCn1cc(/C=C2\SC(=O)N(CC(=O)Nc3ccc4c(c3)OCO4)C2=O)c2ccccc21	.	-6	-12
Cc1ccc(-c2ccc(=O)n(CC(=O)NCc3ccco3)n2)cc1	.	0	-8
COC(=O)C1=NN(C(=O)c2cccc(Cl)c2)C(O)(C(C)(C)C)C1 (configuration not stated)	.	-7	32
C#CCOCCOCCOCCNc1nc(N2CCN(C(=O)CCCCCCCCCCNC(=O)Cn3cc(CCCCCN)nn3)CC2)nc(N2CCN(C(=O)CCCCCCCCCCNC(=O)Cn3cc(CCCCCN)nn3)CC2)n1	.	-1	-14
Cc1ccc(-c2cc(C(=O)OCC(=O)Nc3cc(C)on3)c3ccccc3n2)c(C)c1	.	-4	0
O=c1c2ccccc2nc(SCc2nc(-c3ccccc3)no2)n1-c1ccc(F)cc1	.	21	1
CCc1ccc(C2=CC(c3cc(Br)ccc3F)n3ncnc3N2)cc1 (configuration not stated)	.	4	3
C#CCOCCOCCOCCNc1nc(N2CCN(C(=O)CCCCCCCCCCNC(=O)[C@@H](CCC(=O)O)n3cc(CCCCCN)nn3)CC2)nc(N2CCN(C(=O)CCCCCCCCCCNC(=O)[C@H](CCCCN)n3cc(C[C@@H](C)CC)nn3)CC2)n1	.	7	-9
COc1ccc2cc(CCOC3CCCCO3)ncc2c1 (configuration not stated)	.	-7	-15
COc1cc(/C=C2\C(=O)N(c3ccccc3)N=C2C)ccc1Oc1ccc([N+](=O)[O-])cc1[N+](=O)[O-]	.	-3	34
CCc1c(C)[nH]n(-c2ccc(Oc3ccccc3)c(S(=O)(=O)O)c2)c1=O	.	-3	99*
O=C1C=CN(Cc2ccccc2)C(c2ccccc2)C1 (configuration not stated)	.	0	-4
CCCn1c(=O)c(C(=O)NCc2ccccn2)c(O)c2ccccc21	.	6	-2
COc1ccc(Oc2coc3cc(OC(=O)c4cncc(Br)c4)ccc3c2=O)cc1	.	-7	-5

Sorted by length of the SMILES (highest first): part of the list above.
SMILES	Ecoli rRNA inh	Beta apoptosis	ALR inh	others
C#CCOCCOCCOCCNc1nc(N2CCN(C(=O)CCCCCCCCCCNC(=O)[C@H]([C@@H](C)CC)n3cc(CCCCN=C(N)N)nn3)CC2)nc(N2CCN(C(=O)CCCCCCCCCCNC(=O)[C@H](CO)n3cc(CCCCCN)nn3)CC2)n1	.	108*	-12
COc1cc(/C=C2\C(=O)N(c3ccccc3)N=C2C)ccc1Oc1ccc([N+](=O)[O-])cc1[N+](=O)[O-]	.	-3	34
C[C@H](NC(=O)c1nc[nH]c1C(=O)NCc1ccc(CNC(=O)OC(C)(C)C)cc1)C(=O)OCc1ccccc1	.	-2	-8
Cc1ccc(-c2ccc(=O)n(CC(=O)NCc3ccco3)n2)cc1	.	0	-8
O=C1C=CN(Cc2ccccc2)C(c2ccccc2)C1 (configuration not stated)	.	0	-4

(list continues)
SMILES	Ecoli rRNA inh	Beta apoptosis	ALR inh	others
CC(C)(C)Nc1nc(NC(C)(C)C)nc(-n2ccnc2)n1	.	6	-4
CC(C)(C)c1nc2ccccc2c(=O)n1N1C(=O)c2ccccc2C1=O	.	-5	-19
CC(C)(C)c1cc(OC(=O)c2ccncc2)ccc1O	.	-5	-11
C=C[C@@H]1c2cc(C)ccc2N(S(=O)(=O)c2ccc(C)cc2)[C@H](c2ccccc2)C1(C#N)S(=O)(=O)c1ccccc1 (some centres not stated)	.	2	0
C=C1C(=O)O[C@@]23[C@H]1CC[C@@H](C)[C@@H]2CC[C@@]1(C)O[C@@H]31	.	-3	-6
Cc1nn(-c2ccc(Cl)cc2)c(N)c1C(O)(CSc1nccn1C)C(F)(F)F (configuration not stated)	.	6	0
